High-throughput results (PubChem)
Rce1 inhib: yeast Ras-converting enzyme inhibition; yeast membranes, quenched prenylated peptide cleavage fluorescence; Q03530; AID 2563; 290,000 tested, 0.27% active; calls only;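 active means fall in fluorescence gain of 50% or more versus controls, with final raw signal at or below 3038400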;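 further: plate controls were neutral control wells for no effect and wells lacking membranes for full effect; tested at 10 µM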
Target sequence (Q03530 whole entry, looked up): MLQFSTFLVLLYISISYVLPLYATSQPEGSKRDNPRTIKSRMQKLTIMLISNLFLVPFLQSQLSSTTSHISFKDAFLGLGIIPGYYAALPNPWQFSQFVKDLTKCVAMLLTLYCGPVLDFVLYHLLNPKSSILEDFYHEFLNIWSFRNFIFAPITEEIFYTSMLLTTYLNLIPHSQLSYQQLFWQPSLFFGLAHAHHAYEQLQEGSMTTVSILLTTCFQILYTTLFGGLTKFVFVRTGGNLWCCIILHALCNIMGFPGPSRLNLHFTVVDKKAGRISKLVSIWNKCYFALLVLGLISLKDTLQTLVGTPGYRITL
eIF4H inh: inhibitors of RNA binding by human eIF4H; inhibition, % at 35 µM; Q15056; 290,000 tested, 0.94% active; eIF4H fluorescence polarization binding assay;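 active means 50% or more with normal probe brightness, or confirmed in later tests; about a fifth of its hits are not listed in these tables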;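 further: calls also rest on retests at 20 µM and on dose response follow-up; 0% = protein and probe with vehicle and 100% = probe without protein; strong numbers were not always called active; many hits fall short of the cut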
MT1-MMP act inh: blocks activation of human MT1-MMP | 360,000 tested, 0.061% active | GFP/RFP ratio change, % at 20 µM | HT1080 RFP-PRO-GFP cells, GFP/RFP ratio fluorescence, overnight; percent of plate control window, DMSO zero;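 active means GFP/RFP ratio change of at least 30% with cell ATP level not reduced by more than half and red fluorescence within 50% of control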; further: strong numbers were not always called active
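system = RFP-PRO-GFP reporter HT1080 cells | dosing = 20 µM single dose, 1% DMSO | timing = overnight cell settling, then overnight compound exposure, 37 °C, 5% CO2 | read-out basis = GFP/RFP fluorescence ratio | controls = DMSO and RFP-L50D-GFP cell wells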
HIV Env fusion: blocks HIV Env-driven cell-cell fusion; HeLa-JRFL Env/CEM21 cell fusion, luciferase; inhibition, % at 12.3 µM; 360,000 tested, 1.1% active; AID 651610;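 active means mean replicate inhibition score of at least 50 and every replicate individually at or above 50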;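 further: 0% = plate neutral controls and 100% = maraviroc near 300 nM; one replicate is shown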
UUG fidelity: alters start codon recognition fidelity in yeast; AID 602363; activity score, % at 18.7 µM; S. cerevisiae UUG-firefly luciferase reporter, luminescence/redox ratio; 350,000 tested, 0.13% active;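 active means replicate mean at a twofold rise or more, about +100% in these data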;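 further: firefly luciferase made from a UUG start codon reports start codon fidelity; reporter light over untreated wells divided by growth signal over untreated wells; some hits fall short of that in this replicate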
CSC inhib: cancer stem cell inhibition | cancer stem cell-like cells viability, luminescence | inhibition, % at 7.5 µM | 300,000 tested, 1.1% active;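 active means mean at 75% or more and at least half the replicates too; tested in HMLE shEcad cells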;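 further: 0% = median of negative and 100% = median of positive control wells; the first replicate is given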
PABP polyA inh: blocks human PABP binding to poly(A) RNA. fluorescence polarization. inhibition, % at 35 µM. 290,000 tested, 1% active. AID 2014;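 active means 50% or more with normal probe brightness, or confirmed in later tests; about a fifth of its hits are not listed in these tables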;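 further: calls also rest on retests at 20 µM and on dose response follow-up; controls were probe without protein and protein plus probe with vehicle; some compounds called inactive have numbers as strong as hits; many hits fall short of the cut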
Target sequence (P11940 whole entry, looked up): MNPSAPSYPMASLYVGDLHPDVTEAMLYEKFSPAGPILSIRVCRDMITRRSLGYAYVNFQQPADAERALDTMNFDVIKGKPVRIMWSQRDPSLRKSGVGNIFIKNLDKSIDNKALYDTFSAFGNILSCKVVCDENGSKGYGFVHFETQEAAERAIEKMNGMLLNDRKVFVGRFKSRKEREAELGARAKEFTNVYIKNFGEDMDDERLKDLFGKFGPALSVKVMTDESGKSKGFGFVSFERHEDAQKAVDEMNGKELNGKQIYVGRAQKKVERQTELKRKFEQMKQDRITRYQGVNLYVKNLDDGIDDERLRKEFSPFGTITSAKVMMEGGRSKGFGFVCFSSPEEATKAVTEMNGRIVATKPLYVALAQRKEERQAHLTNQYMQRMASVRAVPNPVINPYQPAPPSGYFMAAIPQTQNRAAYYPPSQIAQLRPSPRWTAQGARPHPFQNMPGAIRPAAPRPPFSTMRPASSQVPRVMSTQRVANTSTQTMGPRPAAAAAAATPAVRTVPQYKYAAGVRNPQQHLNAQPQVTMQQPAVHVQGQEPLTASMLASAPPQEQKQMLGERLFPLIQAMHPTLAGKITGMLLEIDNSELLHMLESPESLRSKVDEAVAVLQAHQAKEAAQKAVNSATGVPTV
eIF4H inh retest: also measured in eIF4H inh; calls as there; inhibition, %; compound at 20 µM; confirmation average;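 mean of two retest wells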
PABP polyA inh retest: further read-out of PABP polyA inh, marked with its call; inhibition, %; compound at 20 µM; confirmation repeats;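 mean of two retest wells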
MT1-MMP act inh RFP: recorded beside MT1-MMP act inh, whose call it bears; RFP signal change, %; measured here: RFP expression control read;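 0 = vehicle wells; hits needed this value within 50% of zero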
Numbers without * were called inactive; i = inactive; . = not tested or not shown; & = joins results of further samples.

SMILES	Rce1 inhib	eIF4H inh	MT1-MMP act inh	MT1-MMP act inh RFP	HIV Env fusion	UUG fidelity	CSC inhib	PABP polyA inh	others
Oc1ccc(/C=N/N2CCCCC2)c(O)c1O	i	55	-11	3	-4	-15	-3	45	eIF4H inh retest=46;PABP polyA inh retest=35
C/C(CC(=O)Nc1ccc(Cl)cc1C(F)(F)F)=N\NC(=O)c1cccs1	i	-8	-6	-3	-20	-14	8	3
O=C1OC(c2ccccc2)=N/C1=C\N1CCCCC1	i	1	21	9	.	-12	-7	-6
CC1CCCN(C(=O)Cn2nnc(-c3cccnc3)n2)C1 (stereo unspecified)	i	-5	-5	-1	-34	-4	-10	-2
COC(=O)c1c(C)[nH]c(C(=O)OCC(=O)c2ccc(C)s2)c1C	.	.	6	-2	-6	-10	17	.
COc1ccc(NC(=S)NCCc2ccccc2)c(OC)c1	i	-2	4	-2	.	-24	2	-10
COC(=O)c1ccc2c(=O)[nH]c(COC(=O)c3c(-c4ccccc4Cl)noc3C)nc2c1	i	.	2	-5	22	.	8	.
COCCCn1c(Cc2csc(Nc3cccc(Cl)c3)n2)nnc1SCC(=O)OC1CCCCC1	i	43	1	0	.	-20	-8	14
O=C(NC(=S)Nc1ccc(Cc2ccncc2)cc1)c1ccccc1F	.	-4	4	-12	6	.	42	-4
CCC(NC(=O)c1cc(COc2cncc(Cl)c2)on1)c1ccncc1 (stereo unspecified)	i	-4	-9	-7	2	-2	-15	-3
CCn1c(C)nc2cc(C(=O)NNC(=S)Nc3ccc(OC)cc3)ccc21	i	10	6	-1	-21	.	-20	0
COc1ccc(Sc2ncnc3onc(C)c23)cc1	i	-6	0	4	2	.	6	-11
COc1cccc(NC(=O)Cn2nnc(C(=O)NCCc3ccccc3)c2N)c1	i	-11	-1	0	1	-11	-10	-2
O=C(NC1CCCC1)C(c1ccc(Cl)cc1)N(Cc1ccc(F)cc1)C(=O)CCl (stereo unspecified)	i	10	0	0	.	.	0	0
CC(=O)NC1=NN(C(C)=O)C2(S1)C(=O)N(CC(C)C)c1ccc(C)cc12 (stereo unspecified)	i	-17	-2	1	-6	.	-13	-1
Cc1occc1-c1nnc(SCC(=O)c2ccc(Cl)cc2)n1CC1CCCO1 (stereo unspecified)	i	1	1	4	-32	6	-1	-4
CCOC(=O)c1[nH]c2ccc(OC)cc2c1NC(C)=O	i	-1	-3	0	.	-26	-6	-7
COc1cccc(CN2CCNC(=O)C2CC(=O)NCC2CCOCC2)c1 (stereo unspecified)	i	4	1	7	-13	-2	.	9
COc1ccc(C(=O)Nc2ccccc2N2CCCCC2)cc1[N+](=O)[O-]	i	-1	1	-12	24	.	26	-5
Cc1ccc(-n2c(N)c(Br)c(=O)[nH]c2=O)cc1C	i	-12	-2	-1	-8	0	.	-19
COc1ccc(S(=O)(=O)NCCc2nnc3ccc(SCC(=O)Nc4cc(C)on4)nn23)cc1	i	1	1	0	-2	.	-3	-10
COc1ccc(-c2cc(C(=O)Nc3c(C)nn(Cc4ccccc4)c3C)no2)cc1	i	-14	10	-3	36	-2	9	-8
COC(=O)C(C)NC(=O)C(C)NC(=O)OCc1ccccc1 (stereo unspecified)	i	-7	1	3	.	-19	-7	-3
O=C(CCc1ccc(S(=O)(=O)NCCc2ccccc2)cc1)Nc1ccc2c(c1)OCCO2	i	2	-5	-6	-3	-28	3	0
Fc1ccc(-c2oncc2-c2nnnn2-c2ccccc2)cc1F	i	1	1	2	-5	12	-10	3
CCOc1ccc(-c2ccc(SCC(=O)NC3CCCCC3)nn2)cc1	i	6	1	-4	-105	-15	-8	-1
O=C(CSc1nn(-c2ccccc2)c(=S)s1)NC(=O)NCc1ccco1	i	9	-2	-7	.	-20	-3	14
Fc1cc(Cl)ccc1NC(=S)NCCN1CCOCC1	i	2	3	3	3	-15	-16	3
CCN1CCc2c(sc(NC(=O)c3ccc(S(=O)(=O)N4CCCC4)cc3)c2C(=O)NC)C1	i	-5	-13	0	9	-8	24	-24
CCOC(=O)c1c(C)nc(C(Cl)(Cl)Cl)nc1N	i	1	0	-1	10	-4	-10	3
CCC(=O)N1CCc2cc(Br)cc(S(=O)(=O)NCC3CCCO3)c21 (stereo unspecified)	i	-4	2	1	-32	17	-7	-1
CCOc1ccc(CCNC(=O)COC(=O)c2ccc(Br)o2)cc1OCC	i	.	-1	-1	17	-2	6	.
CCCCn1nc2cc(C(=O)N[C@H](C)C3CCCCC3)ccc2c1OCC	i	-10	4	-2	.	-6	37	6
O=C(CCc1ccccc1)Nc1ncc([N+](=O)[O-])s1	i	7	-2	-15	-27	-16	23	-7
O=C(CSc1ccc(-c2cccnc2)nn1)c1ccc([N+](=O)[O-])cc1	i	1	1	-1	-67	.	-4	-2
Clc1ccc(-c2csc(Nc3cccnc3)n2)cc1	i	-1	0	-4	-7	.	6	-3
O=C1CSC(c2ccc([N+](=O)[O-])cc2)N1CCN1CCCCC1 (stereo unspecified)	i	0	5	11	-9	.	-5	16
O=C(COC(=O)c1cc2ccccc2cc1O)Nc1cccnc1Cl	i	10	0	6	-12	-25	-17	10
COC(=O)c1ccc(C)c(NC(=O)C2COc3ccccc3O2)c1 (stereo unspecified)	i	0	0	-2	4	-10	1	-5
Cc1c(C(=O)OCC2CCCO2)[nH]c2c1C(=O)CC(c1ccc(N(C)C)cc1)C2 (stereo unspecified)	i	-6	4	-22	19	-3	14	3

Next section; it opens with the 5 that closed the last part.
SMILES	Rce1 inhib	eIF4H inh	MT1-MMP act inh	MT1-MMP act inh RFP	HIV Env fusion	UUG fidelity	CSC inhib	PABP polyA inh	others
Clc1ccc(-c2csc(Nc3cccnc3)n2)cc1	i	-1	0	-4	-7	.	6	-3
O=C1CSC(c2ccc([N+](=O)[O-])cc2)N1CCN1CCCCC1 (stereo unspecified)	i	0	5	11	-9	.	-5	16
O=C(COC(=O)c1cc2ccccc2cc1O)Nc1cccnc1Cl	i	10	0	6	-12	-25	-17	10
COC(=O)c1ccc(C)c(NC(=O)C2COc3ccccc3O2)c1 (stereo unspecified)	i	0	0	-2	4	-10	1	-5
Cc1c(C(=O)OCC2CCCO2)[nH]c2c1C(=O)CC(c1ccc(N(C)C)cc1)C2 (stereo unspecified)	i	-6	4	-22	19	-3	14	3
O=S1(=O)CCN2C=C(Cl)C=C(Cl)C2=N1	i	-21	-6	3	-3	-21	0	-4
CCCCCn1c(CN2CC(C)OC(C)C2)nc2c1c(=O)n(C)c(=O)n2C (stereo unspecified)	i	0	0	5	-13	-15	2	-6
Nn1c(SCC(=O)Nc2ccc(F)cc2F)nnc1-c1cccnc1	i	-7	5	5	-20	-8	-2	0
CCOc1ccc(N(CC(=O)NCc2cccnc2)S(=O)(=O)c2ccc(F)cc2)cc1	i	-5	-1	6	.	-11	-31	-3
CCn1cc(CNC(=O)c2c(-c3c(Cl)cccc3Cl)noc2C)c(C)n1	i	1	-2	-1	-375	.	-13	1
COc1ccc(C(=O)CN2C(=O)NC(C)(c3ccccc3)C2=O)cc1OC (stereo unspecified)	i	-5	-1	-3	.	.	-4	-6
Cn1c(=O)c(=O)n(C)c2cc(S(=O)(=O)NCCOc3ccccc3Cl)ccc21	i	-6	1	1	-6	.	-18	-1
CC1CCCN(C(=O)c2ccc(NC(=O)CC3SC(N4CCCC4)=NC3=O)cc2)C1 (stereo unspecified)	i	.	3	2	.	-3	5	.
C=CCOC(=O)Nc1snnc1C	i	-12	0	-4	.	-6	3	-3
CC(=O)N1CCN(S(=O)(=O)c2ccc3c(c2)OCCO3)CC1	.	.	2	-1	-2	-6	-21	.
C[C@H](C(=O)NCc1ccccc1)C(=O)c1ccccc1	i	5	2	4	3	-13	-1	-1
O=C1CC(c2ccccc2)N1c1ccccc1 (stereo unspecified)	i	-4	-8	-3	.	-8	19	10
CCCCNc1c(-c2ccc(SC3CCCCC3)cc2)nc2cnccn12	.	.	-36&-18	-10&-13	13&18	-11	.	.
CCOc1ccc(C(=O)NCC(c2cccs2)N2CCOCC2)cc1 (stereo unspecified)	.	.	-5	4	.	-10	16	.
Cn1[nH]c(=O)c2ccccc2c1=O	i	0	2	4	.	-22	1	5
O=C(Cc1cccs1)N/N=C\c1ccc([N+](=O)[O-])s1	i	51	-10	-14	16	.	-1	-5	eIF4H inh retest=-11;PABP polyA inh retest=4
CCC(C)Cn1c(O)cc2nn(-c3nc4ccccc4s3)c(=O)c-2c1C (stereo unspecified)	i	90*	-8	5	36	-14	4	69*
C=CC[C@H]1Cc2c(cccc2[N+](=O)[O-])[C@H](CC=C)N1	i	6	0	4	-19	.	4	-7
O=C(NCC1(c2ccccc2)CCCC1)C1(c2ccccc2)CCCC1	i	-10	-24	-26	.	.	15	-5
COc1ccc(OCC(=O)Nc2ccccc2C(=O)N2CCCC2)cc1	i	-15	3	0	-17	11	.	4
CC(=O)Nc1ccc(S(=O)(=O)Oc2ccc(/C=N/NC(=O)c3ccc(Cl)cc3)cc2)cc1	i	-3	3	-6	-116	-16	58	-9
CC(CC(=O)N(CCC1=CCCCC1)c1c(N)n(Cc2ccccc2)c(=O)[nH]c1=O)c1ccccc1 (stereo unspecified)	i	.	-3	-1	-21	.	-5	.
CCN(CC)CCSc1nc2ccccc2n1Cc1ccccc1	i	-8	-3	0	-7	-10	-9	-2
CC(C)(C)NC(=O)CN(C(=O)C1CSC(=O)C1)c1ccc2c(c1)OCCO2 (stereo unspecified)	i	-3	8	7	39	-6	-6	-2
O=C(Nc1cc(Cl)ccc1N1CCOCC1)c1cnccn1	i	-14	-10	-9	-54	-21	5	1
Cn1c(SCC(=O)Nc2cc(C(C)(C)C)nn2-c2ccccc2)nc2ccccc21	i	-9	-3	-4	3	.	17	-4
CC(Oc1cc2oc(=O)c3c(c2cc1Cl)CCC3)C(=O)NCc1ccccn1 (stereo unspecified)	i	-18	-1	7	1	-9	-3	-9

Filtered by structure, those above with a furan ring, fused or not.
SMILES	Rce1 inhib	eIF4H inh	MT1-MMP act inh	MT1-MMP act inh RFP	HIV Env fusion	UUG fidelity	CSC inhib	PABP polyA inh	others
Cc1occc1-c1nnc(SCC(=O)c2ccc(Cl)cc2)n1CC1CCCO1 (stereo unspecified)	i	1	1	4	-32	6	-1	-4
O=C(CSc1nn(-c2ccccc2)c(=S)s1)NC(=O)NCc1ccco1	i	9	-2	-7	.	-20	-3	14
CCOc1ccc(CCNC(=O)COC(=O)c2ccc(Br)o2)cc1OCC	i	.	-1	-1	17	-2	6	.
